H5N1 CPE: antiviral screen in MDCK cells, H5N1 avian flu; inhibition, % at 50 µM; AID 740; actives 0.07% (n = 96,000); cytopathic effect, luminescence, 72 h; active compounds read high; no value below 0 was filed and about half of the inactive calls have no number; reference of the scale not given here; in the data active = inhibition above about 25%
The depositor's hits bear a star; i = inactive; & = joins results of further samples. A portion of the library. The share of hits here may be higher or lower than overall.

SMILES	H5N1 CPE
Cc1cc(NC(=O)C23CCC(C)(C(=O)O2)C3(C)C)no1 (stereo unspecified)	i
CCCS(=O)(=O)N1CCCC(C(=O)NCCCN(CC)c2cccc(C)c2)C1 (stereo unspecified)	i
COc1ccc(C2C(C(=O)OCC(=O)NC(C)(C)C)CCC(=O)N2c2ccc(C)cc2)cc1OC (stereo unspecified)	1.9
O=C(COC(=O)c1c2c(nc3ccccc13)CCCC2)c1cccs1	i
Fc1ccc(-c2nc3c(Cl)cc(C(F)(F)F)cn3c2Cl)cc1	2.0
Cc1cccc(OCCCOc2cccc3cccnc23)c1C	i
CCOc1ccc(N2C(=O)/C(=C/c3cc(OC)c(OC)c(OC)c3)N(CC(=O)OC)C2=S)cc1	i
O=S1(=O)CCN(Cc2cccc(Cl)c2)CC1	i
CCc1ccccc1NC(=O)CSc1nnc([C@@H](NC(=O)OC(C)(C)C)C(C)CC)o1 (stereo partly specified)	1.2
COc1ccc(-c2cc(C(=O)N(C)Cc3ccccc3)no2)cc1OC	i
COc1ccc(CNC(=O)c2cccc(N(C)C)c2)cc1	i
Nc1nnc(-c2ccco2)s1	i
COc1cc(-c2nnc(SC/C=C/c3ccccc3)n2N)cc(OC)c1OC	i
O=c1nc2n(c3ncccc13)CCC2	1.1
Cc1cc(C(=O)Nc2sc3c(c2C#N)CCC(C)C3)cs1 (stereo unspecified)	i
O=S(=O)(NCc1ccc(Cl)cc1)c1cnc[nH]1	i
CCOC(=O)c1sc2nc3c(cc2c1N)COC(C(C)C)C3 (stereo unspecified)	0.7
N#CNC1=NCN(CCc2ccccc2)CN1	i
CCOC(=O)c1c(C)nc2sc(C(=O)Nc3ccccc3)c(N)c2c1-c1ccc(OC)cc1	0.2
Cc1ccc(NC(=O)Cn2nnc(-c3ccccc3NC(=O)c3cccs3)n2)cc1	i
COc1ccc(N2CCN(CCNC(=O)C3CC(=O)N(C4CCCC4)C3)CC2)cc1 (stereo unspecified)	0.0
Cc1nc(N2CCN(Cc3ccccc3)CC2)nc2c1C(=O)CC(c1ccco1)C2 (stereo unspecified)	i
COc1ccc(N2CC(C(=O)Nc3ccc(S(=O)(=O)Nc4nc(C)cc(C)n4)cc3)CC2=O)cc1 (stereo unspecified)	i
COc1ccc(OCCSc2nnc(CCNC(=O)c3ccc(Cl)c(Cl)c3)n2C)cc1	i
O=C1c2ccccc2NC2(CCCCC2)N1c1ccc(O)cc1	0.1
The list goes on.
SMILES	H5N1 CPE
CCc1ccc(OCC(=O)N2CCN=C2c2ccccc2)cc1	i
CN(CCc1ccccc1)Cc1ccccc1[N+](=O)[O-]	0.3
N#CC(C#N)=CC1=C2OC(c3ccccc3)=CC(c3ccccc3)=C2CCC1	i
COc1ccc(OC)c(CNC(=O)CCN2C(=O)COc3ccccc32)c1	i
CN1CCN(C(=O)c2ccccc2NC(=O)CCN2C(=O)c3ccccc3C2=O)CC1	i
COc1ccccc1OCCCn1cc(C(=O)c2ccco2)c2ccccc21	1.7
COc1ccc2nc(NC(=O)Cn3cnc4c(=O)n(C)c(=O)n(C)c43)sc2c1	3.5
c1ccc(CSc2n[nH]c(-c3ccco3)n2)cc1	i
COC(=O)c1sccc1NC(=S)N1CCCCC1	3.0
O=C(Cn1cnc2ccccc2c1=O)NCCC(=O)N1CCN(c2ccccc2)CC1	0.9
CC(C)(C)NC(=O)C(c1cccs1)N(CC1CCCO1)C(=O)Cn1nnc(-c2cccs2)n1 (stereo unspecified)	0.1
Fc1ccccc1/C=N/Nc1nn[nH]n1	i
COC(=O)C(O)(c1c[nH]c2ccccc12)C(F)(F)F (stereo unspecified)	0.7
COc1ccc(CN=CC2=C(O)CC(C)(C)CC2=O)cc1	i
COc1cc(OC)cc(C(=O)n2cnnc2N)c1	1.1
Cc1cc(C)nc(NC2=NCCN2C(=O)NC2CCCCC2)n1	0.1
COc1ccc(NC(=O)CSc2nnc(Cn3c(=O)sc4ccccc43)n2C)cc1OC	0.1
CC1(C)OC(=O)CC1C(=O)NCc1ccccc1 (stereo unspecified)	0.2
CC(C)CC(=O)Nc1ccc(F)c(Cl)c1	0.1
Cc1onc(-c2ccccc2)c1C(=O)NCCc1c[nH]c2ccccc12	i
COC(=O)c1c(NC(=O)c2ccco2)sc(C(=O)N2CCCC2)c1C	i
O=C(O)CCS(=O)(=O)c1cccc2cccnc12	i
Cc1cc2ccccc2nc1SCC(=O)N1CCCC1	i
CC(C)C(OC(=O)c1cc2sccc2n1C)C(=O)NCC1CCCO1 (stereo unspecified)	i
Cc1ccc(S(=O)(=O)c2c(N)n(Cc3ccco3)c3nc4ccccc4nc23)cc1C	6.2
(cont.)
SMILES	H5N1 CPE
Cc1ccc(S(=O)(=O)c2nc(C)oc2NCc2ccccc2)cc1	0.5
O=C(COc1ccccc1Br)NCc1ccco1	4.7
O=C(Nc1cnccn1)c1csc2ccccc12	i
O=C(OCC(=O)c1ccc[nH]1)c1ccc(S(=O)(=O)N2CCCCC2)cc1	i
Cc1nnc(SCC(=O)c2cc(C)n(C3CC3)c2C)s1	1.6
CCOC(=O)C1CCN(C(=O)CSc2nnc(-c3ccco3)n2-c2ccccc2)CC1	0.5
Cc1ccnc(NC(=O)CS(=O)(=O)Cc2ccccc2)c1	0.1
CC(/C=C\c1cccnc1)=C/C(=O)O	0.2&0.8
C=CCn1c(SCC(=O)c2cccs2)nnc1-c1cccc(OC)c1	0.9
Cc1cccc(-n2c(SCC(=O)Nc3ccc4c(c3)OCO4)nnc2-c2ccoc2C)c1	i
CCC(C(=O)NCc1ccco1)N(C(=O)CNS(=O)(=O)c1ccccc1)C1CCCCC1 (stereo unspecified)	0.7
Cc1ccccc1-c1nn2c(-c3ccccc3)nnc2s1	2.8
CCCC(=O)C1=C(SCC)CC(C)(C)C(C(=O)OC)C1=O (stereo unspecified)	i
Cc1ccc(S(=O)(=O)N2CCC(C(=O)N[C@@H](Cc3ccccc3)C(=O)O)CC2)cc1	i
O=c1[nH]c(=O)n(-c2cccc3ccccc23)c(O)c1C=NCc1ccc2c(c1)OCO2	i
CCCOc1ccc(-c2nc(=S)[nH][nH]2)cc1	0.4
Cc1ccc(SCc2[nH]nc3c2C(C(C)C)C(C#N)=C(N)O3)cc1 (stereo unspecified)	0.8
CCOc1cc(/C=N\NC(=O)c2ccc(NC(=O)C(C)(C)C)cc2)ccc1OC(=O)c1ccc(OC)cc1	1.3
O=C(Nn1cnnc1)c1ccc(F)c(S(=O)(=O)N2CCCCC2)c1	i
O=C(Cc1ccccc1)NCCSCc1ccc(Cl)cc1	0.2
CC(=O)C(CC(=O)N1CCCc2ccccc21)C(=O)Nc1ccc(F)cc1 (stereo unspecified)	i
Cc1ccc(NC(=O)C(c2ccc(Cl)cc2)N2CCCCC2)cc1 (stereo unspecified)	0.8
Cc1ccc(C)c(CN2CCC(n3nnc4cc(F)ccc43)CC2)c1	0.2
O=C(Nc1ncc2c(n1)-c1ccccc1OC2)c1ccccc1Cl	0.6
COc1cccc(NC(=O)Cc2nnc(SCC(=O)NC(C)c3ccccc3)n2C)c1 (stereo unspecified)	0.1
(list continues)
SMILES	H5N1 CPE
O=C(/C=C/c1ccc2ccccc2c1)c1ccoc1	i
CC1CN(S(=O)(=O)c2ccc(-c3nc4ccccc4s3)cc2)CC(C)O1 (stereo unspecified)	1.2
CCCC(=O)Nc1nc2c(c(=O)[nH]1)CCCC2	0.8
C=CCOc1ccccc1CN1CCSCC1	0.3
N/C(=N/O)c1nc(N2CCCC2)nc(N(c2ccccc2)c2ccccc2)n1	0.7
CCC(=O)Nc1cc(-c2nn(CC(=O)N3CCCCC3)c(=O)c3ccccc23)ccc1N1CCOCC1	0.5
c1csc(CNCCCN2CCOCC2)c1	i
Clc1cccc(Cl)c1Cn1cnc2c(NCc3ccco3)ncnc21	1.8
COc1ccc(NC(=O)NCc2cccn2C)c(OC)c1	2.0
O=C(Nn1c(-c2ccccc2)nc2ccccc2c1=O)C1CCC1	0.2
COc1ccc(CCNC(=O)C2CC(=O)N(c3ccc(F)cc3)C2)cc1OC (stereo unspecified)	i
O=C(N/N=C/C=C/c1ccccc1)c1ccc(Br)cc1	i
COc1nc(Oc2ccc(/C=N/O)cc2)nc(N(C)C)n1	i
Cc1ccc(NC(=O)C2C3CCCC2C3c2ccccc2)cc1C (stereo unspecified)	i
O=C(CCN1CCN(c2ccccc2)CC1)Nc1ccccc1F	i
Brc1ccc(C2=Nn3c(nnc3-c3n[nH]c4c3CCC4)SC2)cc1	i
CC(=O)c1cccc(NC(=O)c2ccc(S(=O)(=O)N3CCCCC3)cc2)c1	i
CC(C)(C)c1cn(-c2ccccc2)c(=S)[nH]1	0.2
CCCn1c(SCc2nc3sc(C)c(C)c3c(=O)[nH]2)nc2ccccc2c1=O	0.3
O=C(NCCN1CCN(c2cccc(Cl)c2)CC1)C1CCCN(S(=O)(=O)c2cnc[nH]2)C1 (stereo unspecified)	1.1
COCCn1c(-c2ccccc2)nc(=S)c2c1CC(C)(C)OC2	1.5
CCOc1ccc(OCC(=O)c2c(O)c3ccccc3oc2=O)cc1	i
CC(C)N1C(=O)CCC1C(=O)N1CCCc2ccccc21 (stereo unspecified)	i
Cc1cccn2cc(CNC(=O)C3CCCCC3)nc12	i
C[n+]1cc(-c2ccccc2)n2c1CCCCC2	i
Carrying on:
SMILES	H5N1 CPE
CCCC(=O)Nc1cc(Cl)ccc1N1CCN(C(=O)CC)CC1	0.2
CC(Oc1ccc2oc(-c3ccccc3)c(C(=O)O)c2c1)C(=O)O (stereo unspecified)	i
COc1ccc(N=C2SC(C(=O)Nc3ccc4c(c3)OCO4)CC(=O)N2C)cc1 (stereo unspecified)	0.1
COc1ccc(-c2noc(-c3cc(C)cc(C)c3)n2)cc1OC	i
O=C(COC(=O)c1ccccn1)c1ccc(Br)cc1	i
CC(C)(C)NC(=O)CSc1nnnn1C(C)(C)C	i
Cc1cccc(C)c1OCC(=O)NNC(=O)Nc1ccc(Cl)cc1	i
CC(C)Oc1ccc(N2CC(C(=O)OCC(=O)NCc3ccccc3)CC2=O)cc1 (stereo unspecified)	0.0
CCOc1ccc(C2C(C(=O)OC)=CN(CCOC)C=C2C(=O)OC)cc1	0.3
CCCCN(CCCNC(=O)C1CCCN(S(=O)(=O)CC)C1)Cc1ccccc1 (stereo unspecified)	0.2
CCCCCn1c(=O)c(C(=O)OCC)c(O)c2ccccc21	i
Cc1cccc(NC(=O)CSc2nc(COc3ccccc3)nc3ccccc23)c1C	i
COc1ccc(Cl)cc1N1CCN(CCNC(=O)Nc2ccccc2C)CC1	i
COc1nc(N(C#N)CC(N)=O)nc(N2CCCC2)n1	i
CCOC(=O)c1[nH]c(C)c(C(=O)Nc2ccc(C)c(C)c2)c1C	0.5
Cc1cc(C)c2c(CC(=O)NCc3ccco3)coc2c1	i
Cc1oc2cc(O)cc(O)c2c(=O)c1-c1ccc2c(c1)OCCCO2	6.8
Cc1ccc(Nc2nc(C)cc(C)c2C(N)=O)cc1	i
O=C1CCCCC1C(Nc1ccc(Cl)cc1)c1ccccc1 (stereo unspecified)	i
O=C(c1ccccc1)c1cncc(Br)c1	i
CCOc1ccc(C(=O)NCc2cccs2)cc1	i
S=C(NCc1cccs1)Nc1ccc(Cl)cc1	0.1
CCOC(=O)c1cccc(NC(=O)CCc2c(C)nc3ncnn3c2C)c1	0.8
Cc1nc2c(nnn2Cc2ccccc2)c(=O)n1-c1ccccc1	3.5
Nc1nnc(SCc2coc(-c3ccc(Cl)cc3)n2)s1	i

Overlap with the part before: two entries, then new ones.
SMILES	H5N1 CPE
Cc1nc2c(nnn2Cc2ccccc2)c(=O)n1-c1ccccc1	3.5
Nc1nnc(SCc2coc(-c3ccc(Cl)cc3)n2)s1	i
CCOCCCn1cnc2c(c1=O)c1nc3ccccc3nc1n2-c1ccccc1	1.2
CC(=O)c1ccc(OCC(O)CN2CCCC(C)C2)cc1 (stereo unspecified)	1.4
Cc1cc(C)c2c(CN3CCN(CCO)CC3)cc(=O)oc2c1	1.9
Cc1nc2sc3c(NCc4ccco4)ncnc3c2c2c1COC(C)(C)C2	5.2
O=C(NCc1cccs1)C1CCC(CNS(=O)(=O)c2cccc3nsnc23)CC1 (stereo unspecified)	0.1
CCOC(=O)Cc1c(C)nc2c(-c3ccccc3)c(C)[nH]n2c1=O	i
Cc1ccc2c(c1)OC(=O)CC2c1ccccc1 (stereo unspecified)	0.4
CC(C)OCCCNC(=O)c1ccncc1	i
COc1ccc(Br)cc1C1CC(=O)N2CN(Cc3ccccc3)CSC2=C1C#N (stereo unspecified)	0.7
Cc1ccc(NC(CNS(=O)(=O)c2ccc(Cl)cc2)c2ccccc2)cc1 (stereo unspecified)	0.3
Clc1ccc(OCCCc2nc(-c3ccncc3)no2)c(Cl)c1	0.2
COc1ccc(Cl)cc1N1CC(c2nc3ccccc3[nH]2)CC1=O (stereo unspecified)	i

In the list so far, these have an NH in an aromatic ring.
SMILES	H5N1 CPE
O=S(=O)(NCc1ccc(Cl)cc1)c1cnc[nH]1	i
c1ccc(CSc2n[nH]c(-c3ccco3)n2)cc1	i
Fc1ccccc1/C=N/Nc1nn[nH]n1	i
COC(=O)C(O)(c1c[nH]c2ccccc12)C(F)(F)F (stereo unspecified)	0.7
Cc1onc(-c2ccccc2)c1C(=O)NCCc1c[nH]c2ccccc12	i
O=C(OCC(=O)c1ccc[nH]1)c1ccc(S(=O)(=O)N2CCCCC2)cc1	i
O=c1[nH]c(=O)n(-c2cccc3ccccc23)c(O)c1C=NCc1ccc2c(c1)OCO2	i
CCCOc1ccc(-c2nc(=S)[nH][nH]2)cc1	0.4
Cc1ccc(SCc2[nH]nc3c2C(C(C)C)C(C#N)=C(N)O3)cc1 (stereo unspecified)	0.8
CCCC(=O)Nc1nc2c(c(=O)[nH]1)CCCC2	0.8
Brc1ccc(C2=Nn3c(nnc3-c3n[nH]c4c3CCC4)SC2)cc1	i
CC(C)(C)c1cn(-c2ccccc2)c(=S)[nH]1	0.2
CCCn1c(SCc2nc3sc(C)c(C)c3c(=O)[nH]2)nc2ccccc2c1=O	0.3
O=C(NCCN1CCN(c2cccc(Cl)c2)CC1)C1CCCN(S(=O)(=O)c2cnc[nH]2)C1 (stereo unspecified)	1.1
CCOC(=O)c1[nH]c(C)c(C(=O)Nc2ccc(C)c(C)c2)c1C	0.5
CCOC(=O)Cc1c(C)nc2c(-c3ccccc3)c(C)[nH]n2c1=O	i
COc1ccc(Cl)cc1N1CC(c2nc3ccccc3[nH]2)CC1=O (stereo unspecified)	i

Bioassay records as filed in PubChem.
